Source: PubChem BioAssay
Arbovirus inh = antivirals against arbovirus infection, primary screen, cell-based, full library, 10K replicate subset; arbovirus infection cell-based antiviral screen; inhibition, % at 10 µM; 200,000 tested, 0.37% active; AID 1251, 2008;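 active = inhibition from about 30%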;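 also: bluetongue infection of BSR cells; cell survival read as ATP light after 72 h; 0% = infected wells without compound and 100% = uninfected wells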
RecA intein inh = Mtb RecA intein splicing inhibitors, primary screen, biochemical, fluorescence, HTS; cell-free RecA intein splicing; inhibition, %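 (about 9 µM by stock and volumes)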; 290,000 tested, 0.75% active; in the data active = inhibition above about 30%;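 also: 0% = vehicle wells and 100% = reference inhibitor control wells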
Target sequence (P9WHJ3 whole entry, looked up): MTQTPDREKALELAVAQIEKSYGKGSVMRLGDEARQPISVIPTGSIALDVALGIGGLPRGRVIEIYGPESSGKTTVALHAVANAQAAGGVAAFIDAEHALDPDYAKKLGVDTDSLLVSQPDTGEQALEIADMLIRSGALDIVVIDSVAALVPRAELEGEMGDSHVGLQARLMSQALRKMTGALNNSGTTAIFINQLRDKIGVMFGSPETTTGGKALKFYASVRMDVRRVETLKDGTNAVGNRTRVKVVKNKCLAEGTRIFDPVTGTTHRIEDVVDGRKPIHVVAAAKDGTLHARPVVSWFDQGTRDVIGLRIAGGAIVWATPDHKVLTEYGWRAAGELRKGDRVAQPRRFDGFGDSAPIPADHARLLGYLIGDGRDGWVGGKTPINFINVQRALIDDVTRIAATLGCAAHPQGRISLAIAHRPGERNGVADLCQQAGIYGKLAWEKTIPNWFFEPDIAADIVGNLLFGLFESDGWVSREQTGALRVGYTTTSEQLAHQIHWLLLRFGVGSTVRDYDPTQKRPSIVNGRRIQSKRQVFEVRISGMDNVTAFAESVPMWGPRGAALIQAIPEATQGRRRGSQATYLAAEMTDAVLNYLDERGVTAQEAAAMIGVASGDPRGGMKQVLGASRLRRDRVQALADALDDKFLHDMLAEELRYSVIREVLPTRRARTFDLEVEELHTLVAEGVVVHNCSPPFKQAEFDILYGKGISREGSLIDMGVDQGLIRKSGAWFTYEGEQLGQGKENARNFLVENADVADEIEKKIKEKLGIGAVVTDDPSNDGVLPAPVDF
YopH PTP inh = YopH tyrosine phosphatase inhibitors, primary screen, biochemical, fluorescence Ex485/Em525; YopH tyrosine phosphatase [Yersinia enterocolitica]; inhibition, %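 (about 10 µM by stock and volumes)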; 140,000 tested, 0.16% active; AID 898, 2007;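 active = inhibition of 50% or more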;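 also: controls were vehicle for no effect and minimum signal wells for full effect; inactives centre near -20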
Mtb growth = M. tuberculosis H37Rv growth inhibitors, H37Rv strain (AID 1626) | M. tuberculosis H37Rv growth inhibition; higher % means a stronger effect | one-dose inhibition, % at 10 µM; IC50 in µM for titrated hits | 220,000 tested, 0.95% active;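 active = confirmed in a dose series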;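 also: bacteria incubated seven days before Alamar blue readout; 0% = bacteria only wells and 100% = bacteria with antibiotic wells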
Mtb bLac sens = beta-lactam sensitization of Mtb H37Rv, H37Rv. inhibition, % at 25 µM. 330,000 tested, 0.27% active. M. tuberculosis H37Rv growth with meropenem, percent inhibition; hits of this screen are not shown here;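 active = about 74% or more and at least 40 points above the plate without the antibiotic, then above 30% in a dose series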;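 also: growth measured after seven days incubation then overnight dye step; 0% = bacteria only wells and 100% = bacteria with antibiotic; twin plates without the antibiotic show which effects depend on it; some results filed as inactive read as strong as hits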
Arbovirus inh repeat = recorded beside Arbovirus inh, whose call it bears; inhibition, %; measured here: 10K subset replicate screen; many hits read low in the repeat;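 first of two repeat runs on a subset; 0% = infected and 100% = uninfected wells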
Numbers without * were called inactive; . = no result given. Only part of the results is shown (hit frequency here may not be typical).

SMILES | Arbovirus inh | RecA intein inh | YopH PTP inh | Mtb growth | Mtb bLac sens | others
Cc1ccnc(SCCn2c(N3CCCCC3)nc3c2c(=O)[nH]c(=O)n3C)n1 | -0.5 | . | -17.4 | -1.8% | . | Arbovirus inh repeat=2.1
NC(=O)c1cccnc1Nc1cccc(F)c1 | -0.5 | -0.7 | -19.5 | 0.1% | -2.3
CCOC(=O)C1CCN(C(=O)CCNC(=O)Cn2ccc3ccccc3c2=O)CC1 | 3.1 | 0.6 | -42.7 | -0.7% | -2.1
CCc1nnc(NC(=O)CCC(=O)N2CCN(Cc3cc(F)ccc3OC)CC2)s1 | -0.4 | -2.4 | -13.9 | 3.3% | -4.0
COc1ccc(CSc2nncn2N)cc1Br | 2.3 | -0.6 | -38.9 | 0.4% | 23.5 | Arbovirus inh repeat=0.2
S=c1[nH]nc(COc2ccc(Cl)cc2)n1Cc1ccco1 | 2.8 | . | . | 2.4% | -1.4
CCCCOCCCNC(=O)c1ccc(NC(C)=O)cc1 | 3.1 | 1.3 | -16.0 | -0.3% | -2.9 | Arbovirus inh repeat=-0.8
CC(=O)Nc1nnc(CCS(=O)(=O)c2ccc(C)cc2)s1 | . | -0.6 | . | . | 0.7
O=C(O)c1cccc2c1NC(c1cccc([N+](=O)[O-])c1)C1CC(Sc3ccccc3[N+](=O)[O-])C(Cl)C21 (centres undefined) | 0.1 | 24.6 | . | 1.2% | .
CCc1ccc(OCC2c3cc(OC)c(OC)cc3CCN2C(=S)NCCOC)cc1 (centres undefined) | 23.9 | 2.4 | -7.2 | 0.4% | -2.0
COc1ccc(/C(C)=N/Nc2ccccc2Cl)c(O)c1 | . | . | . | -1.1% | 11.4
C/C(=N/NC(=O)c1ccco1)c1ccc(Br)s1 | . | -0.4 | . | . | 2.9
CN(C)c1ncc(S(=O)(=O)c2ccc(Cl)cc2)c(-c2ccc(Cl)cc2Cl)n1 | 14.7 | 2.3 | -37.8 | . | -0.3
Cc1ccc(NC(=O)C(Nc2ccccc2)c2ccccc2)cc1 (centres undefined) | -10.4 | 5.6 | -3.0 | 5.8% | 13.3
c1ccc2[nH]c(CN3CCCCC3)nc2c1 | 0.4 | 1.2 | -15.5 | -0.5% | 8.5
CCc1ccc(N(CC(=O)Nc2sc3c(c2C(=O)OC)CCCC3)S(C)(=O)=O)cc1 | -16.6 | 1.0 | -22.1 | 9.0% | -0.5
O=C(NCc1ccco1)C1CCCN1C(=O)Nc1ccc(Cl)cc1 (centres undefined) | 10.3 | -0.7 | . | -4.5% | 0.2
Cc1c(C(=O)NCCCN2CCCC2=O)oc2ccccc12 | 7.2 | -0.4 | -11.7 | 3.7% | -3.3
CCn1c(=O)n(CC)c2cc([N+](=O)[O-])ccc21 | -4.4 | -1.4 | -9.5 | -12.7% | -11.1
O=C(Nc1cc(S(=O)(=O)N2CCCC2)ccc1OCC(F)(F)F)c1ccc(F)cc1 | 0.7 | 0.1 | -37.4 | 5.6% | -1.5
COc1ccccc1NC(=O)N1CCN(C)CC1 | -5.1 | -3.7 | . | -5.7% | -1.3
O=C(CN(C(=O)CCC(=O)Nc1nccs1)C1CCCC1)NCc1ccc2c(c1)OCO2 | -4.2 | 1.3 | . | 2.4% | -9.0
CCCc1nnc(SCC(=O)Nc2cccc(Cl)c2Cl)o1 | . | 1.5 | . | . | 6.3
C=CCOc1ccccc1/C=N/NC(=O)Cc1ccc(C)cc1 | . | 2.4 | . | . | 0.3
CCOC(=O)N1CCC(NC(=O)COc2cc(=O)n(C)c3ccccc23)CC1 | -0.4 | -3.1 | -45.8 | -0.2% | -0.5
Cc1cc(NCCCN2CCOCC2)n2ncc(-c3ccc(Cl)cc3)c2n1 | -6.5 | -0.6 | -24.1 | 4.9% | 4.1
O=C(CSc1nc2ccccc2s1)N1N=C(c2cccs2)CC1c1ccc(F)cc1 (centres undefined) | 3.4 | 8.7 | -8.5 | -1.1% | -1.3
CCn1c(SCC(=O)Nc2ccc(F)cc2)nnc1C1CC1 | . | -0.1 | . | . | 0.3
O=C(CN(C1CCCCC1)S(=O)(=O)c1ccc(Br)cc1)NCc1ccncc1 | 0.1 | 5.2 | . | -0.5% | -3.6
COC(=O)CC1(CC(=O)OC)C(=O)N(c2ccccc2)C(=O)N(c2ccccc2)C1=O | . | -0.1 | . | . | -3.9
CSc1nc(-c2ccco2)nn1C(=O)c1ccco1 | 13.7 | 13.0 | -19.5 | -7.5% | 0.9
COc1ccc(CCNC(=O)C(=O)Nc2ccc3c(c2)OCCO3)cc1OC | -6.2 | -0.9 | . | 21.3% | -1.9
COc1cccc(C(=O)Oc2cccc(N3C(=O)C4C5CC(C(Br)C5Br)C4C3=O)c2)c1 (centres undefined) | -3.8 | 1.1 | -13.4 | 1.6% | -13.9
CCCC[C@@H]1CN=C(N)N1CC(C)(C)C | . | -1.0 | . | -9.2% | -1.1
COc1cccc(OCc2cc(C(=O)N3CCN(C4CCCC4)CC3)no2)c1 | . | -0.8 | . | . | -5.0
CC(=O)c1ccc(Cc2ncc(C(F)(F)F)cc2Cl)s1 | -5.5 | 1.0 | -32.5 | 1.3% | -12.4
COC(=O)CNC(=O)c1cn(CC(C)C)c(=O)c2cc(OC)c(OC)cc12 | -2.1 | 2.5 | -35.1 | -2.8% | -9.1
COc1ccc(/C=C/C(=O)NC(=S)NNC(=O)c2cccs2)cc1OC | . | -6.4 | . | 2.4% | -2.8
COc1cc(-c2ccc(NC(=O)CN3CCC(C)CC3)c(OC)c2)ccc1NC(=O)CN1CCC(C)CC1 | -24.8 | 1.1 | -33.5 | . | .
CS(=O)(=O)N1CCCC(C(=O)Nc2ccccc2C(F)(F)F)C1 (centres undefined) | . | -5.7 | . | . | -6.5
CSc1nc(C)cc(OCC(=O)N2CCOCC2)n1 | 0.5 | . | -10.2 | -14.1% | 3.6
COc1cccc(C(=O)NC(=S)Nc2ccc3[nH]c(=O)[nH]c3c2)c1 | . | -0.2 | . | . | 6.8
O=C(CCCCCNC(=O)c1ccccc1)N/N=C/c1ccc(O)cc1O | -13.3 | -5.2 | -33.8 | 4.5% | -4.3
O=C(CCN1CCCCCC1)Nc1ccc(F)c(F)c1 | 2.3 | 2.6 | 4.2 | 2.9% | -16.6
CC(=O)c1ccccc1OCC(O)CN1CCN(CCN2C(=O)c3cccc4cccc(c34)C2=O)CC1 (centres undefined) | -3.2 | 1.3 | . | 39.8% | 1.6
CC1CCN(c2nnc(N3CCC(C)CC3)c3ccccc23)CC1 | 22.7 | 3.0 | . | . | 2.3 | Arbovirus inh repeat=12.8
Cc1cc(C)c(C(=O)N2CCCC(CNS(=O)(=O)N(C)C)C2)o1 (centres undefined) | . | -0.4 | . | . | 4.7
CCCc1nn(C)c2c(=O)[nH]c(-c3cc(S(=O)(=O)Nc4ccc(NC(C)=O)cc4)ccc3OCC)nc12 | . | 1.6 | . | -4.1% | 5.5
O=C1N(Cc2ccccc2)c2ccc(Cl)cc2C12OCCO2 | . | 4.7 | . | . | 1.1
CC1=NNC(=O)C1CC(=O)N/N=C/c1ccc(C)o1 (centres undefined) | . | -14.4 | . | 8.0% | -1.3
Cc1cccc2c1-c1sc(C(=O)NCCCN3CCC(C)CC3)cc1CO2 | . | -49.6 | . | . | 2.8
O=C(C1CCC1)N1CCc2cc(S(=O)(=O)NCc3cccnc3)ccc21 | 9.3 | -4.5 | -33.5 | -6.0% | -0.3
CCC1(CC)NC(=O)N(CC(=O)OC(C)C(=O)Nc2ccc(Cl)cn2)C1=O (centres undefined) | . | -1.1 | . | . | -1.8
NC1=NC(=O)/C(=C\C=C\c2ccccc2)S1 | -15.4 | -2.2 | -22.3 | 2.6% | -5.1
CCOP(=O)(OCC)C(NC(=O)c1cc([N+](=O)[O-])cc([N+](=O)[O-])c1)C(F)(F)F (centres undefined) | 6.3 | -1.1 | . | 0.7% | 8.2
CCN1CCN(c2cc(C)c3cc(NC(=O)Cc4ccc(OC)c(OC)c4)ccc3n2)CC1 | -1.0 | -2.1 | -40.8 | 5.0% | -0.1 | Arbovirus inh repeat=-2.7
Cc1ccc(S(=O)c2ccc(NC(=O)C3CC3)cc2C#N)cc1 (centres undefined) | 15.9 | -1.4 | . | 15.1% | 2.7
Cc1ccc(C)c(NC(=O)C(Sc2nc3ccc(C)cc3[nH]2)c2ccccc2)c1 (centres undefined) | -15.3 | . | 2.5 | 3.7% | -4.5
COc1ccc(NS(=O)(=O)c2cc(NC(=O)CC3CCCC3)ccc2N2CCOCC2)cc1 | -24.3 | 4.3 | . | 18.2% | 57.7
COc1ccc(S(=O)(=O)N(CC(=O)NCC2CCCO2)Cc2ccccc2)cc1 (centres undefined) | . | 0.0 | . | . | 4.6

Brought forward from above: two entries, then new ones.
SMILES | Arbovirus inh | RecA intein inh | YopH PTP inh | Mtb growth | Mtb bLac sens | others
COc1ccc(NS(=O)(=O)c2cc(NC(=O)CC3CCCC3)ccc2N2CCOCC2)cc1 | -24.3 | 4.3 | . | 18.2% | 57.7
COc1ccc(S(=O)(=O)N(CC(=O)NCC2CCCO2)Cc2ccccc2)cc1 (centres undefined) | . | 0.0 | . | . | 4.6
Cc1cc(Cl)nc(Cl)c1C(=O)NCc1ccc(Cl)cc1 | . | 2.8 | . | . | 7.5
Cc1cc(C)c(Cc2c(C)nc3c(C(=O)NCc4ccco4)cnn3c2C)c(C)c1 | -29.1 | 1.1 | 3.1 | 7.6% | -8.5
Nc1nc(COc2ccc(F)cc2)nc(N2CCCCC2)n1 | -1.2 | -2.7 | . | 2.9% | 0.3
CC(=O)Nc1ccc(N2CCOCC2)c([N+](=O)[O-])c1 | 2.4 | -2.5 | . | 1.8% | 2.2
COc1ccc2cc(CCNC(=O)c3cccs3)c(=O)[nH]c2c1 | -8.1 | 2.6 | -30.6 | 4.0% | -3.6
O=C(c1ccco1)N1CCN(C(=O)c2ccc(COc3ccc4c(c3)CCC4)o2)CC1 | -14.8 | 1.7 | -9.3 | -2.7% | 55.4
N/C(=N\OC(=O)CCC1CCCC1)c1cccnc1 | -7.5 | -4.1 | -10.2 | 5.5% | 0.9
CCOC(=O)N1CCN(CC(=O)N2c3ccccc3CC2C)CC1 (centres undefined) | 7.9 | -6.6 | -12.8 | -4.7% | -6.2
CC(C)(C)S(=O)(=O)c1cnc(-c2ccccn2)nc1N | . | 0.6 | . | -8.1% | -8.4
CC(=O)NC12CC3CC(C1)CC(C(=O)N1CCN(S(=O)(=O)c4cccc(F)c4)CC1)(C3)C2 | . | 1.9 | . | . | -11.5
CCOc1ccc(CN2CCN(CC3=Cc4cccc(OC)c4OC3)CC2CCO)cc1 (centres undefined) | -19.0 | 41.7* | . | 6.6% | -0.4
COc1ccc(C(=O)NC(=S)NCc2cccnc2)cc1Br | 5.3 | 5.4 | . | 4.6% | 2.4
COc1ccc(-c2cc(C)no2)cc1S(=O)(=O)Nc1cccc(CN2CCCC2)c1 | . | 5.0 | . | . | -3.4
CN1CCC(N(C)C(=O)/C=C/c2cn(-c3ccccc3)nc2-c2cccs2)CC1 | -28.8 | . | . | 4.3% | 14.3
CCN(CC)c1ccc(/C=C/C(=O)c2cccnc2)cc1 | -4.8 | . | . | 16.5% | 1.7

Molecules above with a CF3 group (4):
SMILES | Arbovirus inh | RecA intein inh | YopH PTP inh | Mtb growth | Mtb bLac sens | others
O=C(Nc1cc(S(=O)(=O)N2CCCC2)ccc1OCC(F)(F)F)c1ccc(F)cc1 | 0.7 | 0.1 | -37.4 | 5.6% | -1.5
CC(=O)c1ccc(Cc2ncc(C(F)(F)F)cc2Cl)s1 | -5.5 | 1.0 | -32.5 | 1.3% | -12.4
CS(=O)(=O)N1CCCC(C(=O)Nc2ccccc2C(F)(F)F)C1 (centres undefined) | . | -5.7 | . | . | -6.5
CCOP(=O)(OCC)C(NC(=O)c1cc([N+](=O)[O-])cc([N+](=O)[O-])c1)C(F)(F)F (centres undefined) | 6.3 | -1.1 | . | 0.7% | 8.2

Additional entries.
SMILES | Arbovirus inh | RecA intein inh | YopH PTP inh | Mtb growth | Mtb bLac sens | others
COC(=O)c1ccccc1NC(=O)CN1CCN(C(=O)c2ccco2)CC1 | 19.4 | 4.7 | -18.1 | 1.3% | -1.3
CC(=O)Nc1ccc(S(=O)(=O)Oc2ccc(/C=C3\SC(N)=NC3=O)cc2)cc1 | -0.1 | 5.4 | . | -1.4% | -4.9
c1ccc(SSc2ccccc2)cc1 | -11.0 | 2.5 | 1.3 | 10.6% | 1.2
COC(=O)Cn1cnc2c(cnn2-c2ccccc2)c1=O | 0.7 | -3.5 | . | -6.5% | -0.9
CCCOc1ccc(OC(=O)Cc2ccc(OC)c(S(=O)(=O)N3CCOCC3)c2)cc1 | . | -8.1 | . | . | -8.1
O=C(CSc1nnc(NC(=O)C2CC(=O)N(c3ccccc3)C2)s1)NC1CCCC1 (centres undefined) | . | 0.4 | . | . | -1.5
O=C(COC(=O)/C=C/c1cccc(Cl)c1)NCCc1ccccc1 | -2.9 | -1.3 | 12.1 | 6.7% | 21.0
